AmpC inh no det: inhibitors of E. coli AmpC beta-lactamase without detergent; P00811; AmpC nitrocefin hydrolysis, absorbance 480 nm, no detergent; potencies from a single point are estimates; Potency, µM (titrated, usually from 28.7 µM), without a hit: top-dose activity change, negative = inhibition; actives 1.8% (n = 71,000); active = falling curve, for most hits resting on a single point; inconclusive = weak or doubtful change; inactive = flat or rising curve; further: % of control where 0% means no effect; about half of the hits show no inhibition at the top dose; a quarter of the inactives give rising signals
Target sequence (P00811 whole entry, looked up): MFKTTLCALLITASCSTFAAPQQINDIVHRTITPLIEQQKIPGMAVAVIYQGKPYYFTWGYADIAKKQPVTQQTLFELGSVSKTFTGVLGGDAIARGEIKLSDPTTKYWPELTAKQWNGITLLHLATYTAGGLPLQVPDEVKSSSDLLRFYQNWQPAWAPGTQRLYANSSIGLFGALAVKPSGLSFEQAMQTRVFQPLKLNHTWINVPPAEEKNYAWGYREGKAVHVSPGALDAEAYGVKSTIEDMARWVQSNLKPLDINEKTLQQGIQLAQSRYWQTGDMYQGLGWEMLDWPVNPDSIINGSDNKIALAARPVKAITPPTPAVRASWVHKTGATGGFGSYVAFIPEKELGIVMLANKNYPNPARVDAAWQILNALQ
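AmpC, 20 mM phosphate pH 7.0; 15 min cpd preinc, RT; start with nitrocefin (800 uM stock); A480 kinetic read, 20 s intervals, 4 min. No-enzyme wells = negative control.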
The depositor's hits bear a star; ? = inconclusive; & = joins results of further samples; [ ] = remark or other dose. Potency means the concentration at half of the fitted maximal effect.

item	canonical_smiles	AmpC inh no det
1	CCOC(=O)C1C(=O)CC(=O)CC1CC(C)SCC (centres undefined)	-3.9%
2	COc1[nH]c2ccc(F)cc2c1C(=O)OCC1CCN(CCNS(C)(=O)=O)CC1	31.8%&20.4%
3	COCCn1c(=O)c(-c2cccc(C#N)c2)nc2cnc(Nc3ccccc3)nc21	-0.3%
4	COc1ccc2c(c1)CCc1c(C(=O)NC3CCCCC3)noc1-2	1.2%
5	CN=C(SCc1cc2c(cc1Cl)OCO2)c1c(O)n(C)c(=O)n(C)c1=O	-10.0%
6	CC(=O)Nc1ccc(S(=O)(=O)N[C@H](C(=O)O)C(C)C)cc1	-7.2%
7	CCCc1nc(SCC(=O)c2ccc(OC)cc2)c2c(=O)n(C)c(=O)n(C)c2n1	2.1%
8	CCCc1ncc(C(=O)c2ccc(OC)cc2)n1C	1.2%
9	CCOC(=O)CSc1nnc(-c2ccc(OC)cc2OC)o1	34.5%
10	CC(C)n1c(SCC(=O)Nc2ccc3c(c2)OCO3)nc2c1c(=O)n(C)c(=O)n2C	50.2%
11	CCc1cc2c(cc(C(=O)O)n2C)s1	-5.9%
12	CCc1nnc(NC(=O)c2ccc(S(=O)(=O)NC3CCCCC3)cc2)s1	-5.9%
13	COCCn1c(SCCCc2ccccc2)nc2c1c(=O)[nH]c(=O)n2C	52.9%
14	O=C(Nc1cccc(F)c1)N1CCC2(CC1)CCN(C(=O)Oc1ccccc1)CC2	44.4%
15	COC(=O)n1c(=O)oc2cc(S(=O)(=O)N3CCOCC3)ccc21	0.2%
16	NC(=O)C1CCN(C(=O)C23CC4CC(CC(C4)C2)C3)CC1	7.6%
17	COc1ccc(C(=O)CSc2nnc(-c3ccco3)n2CC2CCCO2)cc1 (centres undefined)	98.0%
18	Cc1n[nH]c(C)c1N1C(=O)c2cccc3cc(Br)cc(c23)C1=O	51.9%
19	CNC(=O)CSc1nnnn1CCCOC	1.6%
20	Cc1ccc(CNC(=O)c2cc3c(=O)n(C)c4ccccc4c3n2C)o1	37.8%

Gathered by group, the compounds so far containing a COOH group.
item	canonical_smiles	AmpC inh no det
6	CC(=O)Nc1ccc(S(=O)(=O)N[C@H](C(=O)O)C(C)C)cc1	-7.2%
11	CCc1cc2c(cc(C(=O)O)n2C)s1	-5.9%

(continued)
item	canonical_smiles	AmpC inh no det
21	NC1=NC2=C(CCCC2)C2(CCCCC2)S1	5.3%
22	COc1ccc(CC(=O)Nc2ccc(S(=O)(=O)NCC3CCCO3)cc2)cc1 (centres undefined)	2.8%
23	Cc1nc2cnc(N3CCOCC3)nc2n(CCc2ccccc2)c1=O	89.0%
24	O=C(CN1C(=O)COc2ccccc21)N(Cc1cccnc1)Cc1cccc(F)c1	45.6%
25	Cc1ccc(C)c(N2CCN(C(=O)c3cc4ccccc4oc3=O)CC2)c1	72.9%
26	Cc1ccc2c(c1)-c1ccccc1S(=O)(=O)N2	-14.0%
27	O=C(Nc1ccc(-n2nncc2-c2ccco2)cc1)c1cc2ccccc2oc1=O	-9.0%
28	COC(=O)N(C)c1nc2ccccc2s1	-16.7%
29	CN1C(=O)CSc2ccc(C(=O)O)cc21	-0.1%
30	COc1ccc(OC)c(-n2c(SCC(=O)N3CCc4ccccc43)nc3c(c2=O)SCC3)c1	3.3%
31	CN(Cc1ccccc1)C(=O)COC(=O)c1ccc2c(c1)OCO2	19.4%
32	O=C(CN1C(=O)c2ccccc2S1(=O)=O)Nc1ccccc1C(=O)NCc1ccco1	-12.7%
33	Cn1cc(CC(=O)N2CCN(c3ccc(Cl)cc3)CC2)c2ccccc21	81.9%
34	CCn1c(=O)n(CC)c2cc(S(N)(=O)=O)c(C)cc21	7.6%
35	CC(C)(C)n1cnc2cc(NS(=O)(=O)c3ccccc3)ccc21	5.3%
36	CC1CCN(C(=O)CSc2nnc(Cc3cc(=O)[nH]c(=O)[nH]3)n2-c2ccc(Cl)cc2)CC1	3.98µM*[single pt active]
37	CC(C)C(=O)Nc1ccc(C(=O)NC2CCSC2=O)cc1 (centres undefined)	-15.7%
38	O=c1nc2n(c3cc(Cl)c(S(=O)(=O)N4CCOCC4)cc13)CCCCC2	0.0%
39	CCOc1ccccc1-n1c(SCC(=O)NC)nnc1-c1ccco1	2.7%
40	CCOC(=O)N1CCN(C(=O)C2COc3ccccc3O2)CC1 (centres undefined)	29.8%
41	Cc1ccc(-n2c3c(cc(C(=O)NCc4ccco4)c2=O)C(=O)CC(C)(C)C3)cc1	88.1%
42	CC(=O)/C(=N\N=C(N)N)c1ccccc1	-5.3%[5.75 µM]
43	Cn1cccc1C(C(=O)NC1CCCCC1)N(C(=O)Cc1cccs1)c1ccc2c(c1)OCO2 (centres undefined)	-7.5%
44	Cc1ccc2ccccc2c1COC(=O)c1nonc1N	-2.1%
45	COc1ccc(-c2nc3cnc(Oc4ccccc4)nc3n(CCC#N)c2=O)cc1	9.0%
46	COc1cc(-c2nnc(SCc3c(F)cccc3Cl)o2)cc(OC)c1OC	90.5%
47	Cc1cc(NC(=O)c2cccnc2)ccc1NC(=O)c1ccco1	-8.5%
48	O=C(CN1C(=O)CN=C(c2ccccc2)c2ccccc21)NCc1ccco1	17.3%
49	O=C(C1CCN(c2nnc(-n3cccc3)s2)CC1)N1CCOCC1	45.5%
50	CC1N(C)c2cc(NC(=O)c3ccco3)ccc2C1(C)C (centres undefined)	13.9%
51	CC(C)(C)c1cc(O)c(C(C)(C)C)cc1O	-6.2%
52	COc1ccc2cc(CN(CCO)C(=O)c3ccc(Br)cc3)c(=O)[nH]c2c1	68.8%
53	CCN(CC)C(=O)COc1ccc2oc(C)c(C(=O)OC)c2c1	47.5%
54	CC(C)(O)C#Cc1ccc(C(=O)NCc2cccs2)s1	-10.6%
55	O=C(c1cc2nc(-c3ccco3)cc(C(F)(F)F)n2n1)N1CCCCCC1	60.0%
56	O=C1C2=C(Nc3ccccc3SC2c2ccco2)c2ccccc21 (centres undefined)	0.398µM*
57	COCCNc1ncnc2c1cnn2Cc1ccc(Cl)cc1	18.3%
58	C[C@@H]1C[C@@H]([C@H](O)CC2CC(=O)NC(=O)C2)C(=O)[C@@H](C)C1	-5.1%&-10.0%
59	CCn1c(SCC(=O)Nc2ccc3c(c2)OCO3)nc2c1c(=O)n(C)c(=O)n2C	7.2%
60	O=C(CN(c1ccc2c(c1)OCCO2)S(=O)(=O)c1ccccc1)Nc1ccc2c(c1)OCO2	?
61	O=S(=O)(c1ccccc1)N1CCN(Cc2cccc(Cl)c2)CC1	-14.0%
62	CC1CC(C)CN(c2nc3c(c(=O)n(C)c(=O)n3C)n2C)C1 (centres undefined)	36.0%
63	O=C(CSc1nnc(-c2ccccn2)n1Cc1ccccc1)Nc1ccc2c(c1)OCO2	22.9%
64	O=C(Nc1ccccc1C(=O)N1CCN(c2ccccc2)CC1)c1ccco1	9.7%
65	CC1CCN(S(=O)(=O)c2ccc3[nH]c(=O)c(=O)[nH]c3c2)CC1	-2.9%
66	Nc1nc(SCc2ccccc2)[nH]c(=O)c1-c1ccccc1	-4.9%
67	Cc1[nH]nc2c1C(c1cccnc1)N(c1ccc(Br)cc1)C2=O (centres undefined)	15.8%
68	COc1ccccc1OCC(O)Cn1c(=N)n(Cc2ccccc2)c2ccccc21 (centres undefined)	11.3%
69	O=c1cc(N2CCN(c3ccccc3F)CC2)[nH]c(=O)n1-c1ccc(Br)cc1	-5.5%
70	O=C(NCc1cccs1)C1CC(=O)N(c2ccc(F)cc2)C1 (centres undefined)	3.7%

Reprinted from the part before: 3 compounds, then new ones.
item	canonical_smiles	AmpC inh no det
68	COc1ccccc1OCC(O)Cn1c(=N)n(Cc2ccccc2)c2ccccc21 (centres undefined)	11.3%
69	O=c1cc(N2CCN(c3ccccc3F)CC2)[nH]c(=O)n1-c1ccc(Br)cc1	-5.5%
70	O=C(NCc1cccs1)C1CC(=O)N(c2ccc(F)cc2)C1 (centres undefined)	3.7%
71	CCNc1ncc2nc(-c3ccc(F)cc3)c(=O)n(C)c2n1	8.3%
72	COC(=O)[C@@]1(Cc2ccc(F)cc2)[C@H]2c3cc(C(=O)N4CCCC4)n(CC4CC4)c3C[C@H]2CN1C(=O)c1ccccc1	162.9%
73	COc1ccccc1/C=c1\sc2nc(-c3cccs3)nn2c1=O	-8.7%
74	COc1ccc(N2CCN(C(=O)c3ccc(OCC4CCCO4)cc3)CC2)cc1 (centres undefined)	80.1%
75	CN(C)c1ncc2nc(-c3cccs3)c(=O)n(CCc3ccccc3)c2n1	-5.4%
76	O=C(c1cccnc1)N1CCN(S(=O)(=O)c2ccc(S(=O)(=O)N3CCCC3)cc2)CC1	7.7%
77	COc1ccc(Cl)cc1S(=O)(=O)N1CCN(c2ccc(F)cc2)CC1	12.8%
78	O=C1CC(=O)N(Cc2ccco2)C(=O)N1	-5.5%
79	CC(C)CCNC(=O)C1CCCN(S(=O)(=O)c2ccc(F)cc2)C1 (centres undefined)	13.4%
80	Cc1nn(Cc2ccccc2)c(C)c1NC(=O)c1cc(-c2ccc3c(c2)OCO3)on1	42.1%
81	Cc1cccc(C)c1OCC(=O)Nn1c(C)nc2ccccc2c1=O	8.6%
82	Cc1cc(C)n2nc(SC3CCCCN(C(=O)c4ccc(F)cc4)C3=O)nc2n1 (centres undefined)	69.3%
83	C=C(C)Cn1c(SCC)nc2ccccc2c1=O	-8.5%
84	Cn1cccc1C(=O)N1CCC2(CC1)CN(C(c1ccccc1)c1ccccc1)C2	139.3%
85	O=c1[nH]c(=O)n(Cc2ccc(F)cc2)c(O)c1C=NCc1cccnc1	-6.1%
86	CCCCn1c(SCC(=O)NCC2CCCO2)nc2ccc(N3CCOCC3)cc2c1=O (centres undefined)	86.7%
87	COC(=O)CC1C(=O)NCCN1C(=O)c1ccccc1 (centres undefined)	-15.0%
88	Cc1nc(NC2CCCCC2)c2nc(-c3ccccc3)n(C(C)CN(C)C)c2n1 (centres undefined)	118.6%
89	COc1ccc(N2CCN(Cc3nc4ccccc4c(=O)[nH]3)CC2)cc1	18.9%
90	COc1ccc(CNc2ccnc(-c3cccc(NS(C)(=O)=O)c3)n2)c(OC)c1	56.4%
91	O=C(N[C@H](CO)[C@H](O)c1ccc([N+](=O)[O-])cc1)C(Cl)Cl	-19.9%
92	COCCn1c(C(=O)N2CCCC2)cc2c1C[C@H]1CN(C(=O)c3ccccc3)[C@@](Cc3ccc(OC)cc3)(C(=O)OC)[C@@H]21	181.9%
93	O=C(NCCN1CCOCC1)NC1(C(F)(F)F)Oc2ccccc2O1	8.2%
94	COc1cc(NS(C)(=O)=O)c(OC)cc1NC(=O)c1ccccc1	16.5%
95	COc1ccc(N(CC(=O)NCCSC(C)(C)C)S(C)(=O)=O)c(OC)c1	66.1%
96	c1ccc(-c2nc(NCCCN3CCOCC3)c3ccccc3n2)cc1	58.3%
97	COc1ccc(S(=O)(=O)N2CCCCC2)cc1C(C)C	11.6%
98	CCOc1ccc(N(Cc2cc3cc(OC)ccc3[nH]c2=O)C(=O)C2CCCO2)cc1 (centres undefined)	58.9%
99	O=C(c1ccccc1F)N1CCN(Cc2cccc(Cl)c2)CC1	62.5%
100	CC(C)CNC(=O)c1ccccc1NC(=O)c1ccc(CN2CCOCC2)cc1	48.0%
101	CC(=O)Nc1cccc(C)c1	-14.1%
102	CCOc1cc(C2C(C(=O)OC)=C(C)N=C3SCCC(=O)N32)ccc1OC(C)=O (centres undefined)	60.6%
103	CCOC(=O)N1CCN(C(=O)COc2ccc(Br)cc2Cl)CC1	72.0%
104	CCc1nnc(NC(=O)CCN2C(=O)CCC2=O)s1	2.0%
105	C=CCc1c(C)nn(CC(=O)O)c1-c1ccccc1	8.2%
106	O=C(Nc1ccon1)c1sc2cc(F)ccc2c1Cl	-1.0%
107	CCOC(=O)N1CCC(NC(=O)c2cc(S(=O)(=O)N3CCC4(CC3)OCCO4)ccc2F)CC1	60.9%
108	COc1cccc(CNC(=O)C2CCCN(S(=O)(=O)c3cnc[nH]3)C2)c1 (centres undefined)	-6.6%
109	CCOC(=O)c1sc(NC(=O)c2ccco2)nc1-c1ccccc1	-0.5%
110	CCOC(=O)c1oc2cc(O)c(CC)cc2c(=O)c1-c1ccc2c(c1)OCCO2	-24.6%
111	COCCn1nnnc1CN1CCN(c2cccc(C(F)(F)F)c2)CC1	37.3%
112	COc1ccc2c(c1)CN([C@H](C)[C@@H]1CC[C@@H]3[C@H]4CC[C@H]5C[C@@H](O)CC[C@@]5(C)[C@H]4CC[C@]31C)CO2	4.4%[5.75 µM]
113	COc1ccccc1NC(=O)Nc1nc(-c2cccnc2)nc2ccccc12	-6.8%
114	CCCCN(C)C(=O)c1oc2ccc(S(=O)(=O)N3CCCCCC3)cc2c1C	62.4%
115	CNc1ncnc2ccc(-c3ccccc3C#N)cc12	13.2%
116	Nc1c(C(=O)Nc2ccc([As](=O)(O)O)cc2)cnc2nnnn12	-17.8%[5.75 µM]
117	O=C(CCCC(=O)OCC(=O)NC1CCCC1)Nc1ccccn1	-11.5%
118	O=C(Nc1ccccc1)c1ccc(NCC2CCCO2)c(S(=O)(=O)N2CCOCC2)c1 (centres undefined)	65.0%
119	Nc1ccn([C@H]2CS[C@@H](CO)O2)c(=O)n1	-0.5%
120	COc1ccc(C2C3=C(CC(C)(C)CC3=O)Oc3ncn(CCO)c(=N)c32)cc1OC (centres undefined)	26.0%

The list goes on.
item	canonical_smiles	AmpC inh no det
121	Cn1ncc2c1ncn1nc(COc3ccc4ccccc4c3)nc21	30.3%
122	Cc1cc(C)c2nc(NC3=NCN(CCN4CCOCC4)CN3)nc(C)c2c1	-5.0%
123	C=C(C)c1cccc(C(C)(C)NC(=O)N2CCN(CC(N)=O)CC2)c1	19.3%
124	NC(N)=NC(N)=Nc1ccccc1 (tested in a mixture with another compound)	-8.0%[5.75 µM]
125	O=C(CNS(=O)(=O)c1cccs1)N1CCc2ccccc2C1	-14.3%
126	CCn1c2ccccc2c2nnc(SCC(=O)Nc3ccc4c(c3)OCO4)nc21	?
127	CCN1C2=NCCCN2c2ccccc21	-8.4%

Bioassay records as filed in PubChem BioAssay.

An excerpt; the hit share may differ from the screen's.
